CtBP-E1A blk: blocks the CtBP interaction with E1A; 0.49% of 340,000 active; activity change, % (test concentration not listed); AlphaScreen GST-E1A/His-CtBP binding, 1536-well; active compounds read low; control for the full effect not named in the record; in the data active means activity change below about -65%; inconclusive means about -30% to -65%; inactive means above about -30%; note: % is set by controls: 0 for no effect and ±100 for the full control effect
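In 5 uL wells, 23 nL compound meets equimolar GST-E1A and His-CtBP (5X stock 125 nM each) for 2 h, 37 °C. Beads (5X, 50 ug/mL) then 1 h, 37 °C, dark.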
gsp agonist: gsp mutant agonism; gsp mutant cells, cAMP HTRF, 30 min; control for the full effect not named in the record; Potency, µM (highest dose often 76.9 µM), for inactives: at the highest dose activation (cAMP increase), actives largely listed as activators; 0.13% of 340,000 active; active = well fitted activation curve with a large enough effect; inconclusive = small, poorly fitted or top-dose-only effect, or another doubt; inactive = no such curve, though single readings can be large or run the other way; cell line not stated here;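 note: phosphodiesterase inhibitor Ro 20-1724 added with compounds to block cAMP breakdown; potency is the fitted concentration of half-maximal effect; nearly all actives have a fitted effect of over 60% in size; about a fifth of the inactives were tested at one dose only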
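Cells in DMEM/10% FBS with G418 were pretreated with compounds in DMSO plus […] (300 uM stock) for 30 min at 37C. cAMP was measured by HTRF (cAMP-d2 plus anti-cAMP antibody-K) after 30 min at room temperature.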
Six1-Eya2 inh: inhibitors of human Six1/Eya2 interaction; 0.56% of 360,000 active; activity change, % (concentration not given with the values); Q15475+O00167; AID 651725; AlphaScreen GST-Six1/His-Eya2 binding, biochemical; active compounds read low; control for the full effect not named in the record; in the data active = activity change below about -65%; inconclusive = about -30% to -65%; inactive = above about -30%; note: % is set by controls: 0 for no effect and ±100 for the full control effect
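GST-Six1 + His-Eya2 (5X stock: 250/500 nM); Tris pH 8.0, 300 mM NaCl, 0.05% BSA, 0.02% Tween 20; GSH donor/Ni acceptor beads; 1 h 37 °C dark; AlphaScreen readout.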
gsp antag: gsp mutant antagonism; gsp-mutant cells, cAMP HTRF, 30 min; control for the full effect not named in the record; Potency, µM (titrated, usually from 76.9 µM), for inactives: at the highest dose activity change, negative = inhibition, most hits filed as inhibitors; 0.4% of 340,000 active; active = falling curve of any shape with a large fitted effect; inconclusive = falling curve, mostly with a smaller effect; inactive = flat or rising curve; cell line not stated here;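 note: intracellular cAMP measured with PDE inhibitor Ro 20-1724 present during compound exposure; potency is the fitted concentration of half-maximal effect; % is set by controls: 0 for no effect and ±100 for the full control effect; nearly all actives have a fitted effect of over 65% in size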
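Cells, 2000/well, grown 16–24 h in DMEM 10% FBS with 0.5 mg/ml G418, then compounds plus […] (300 uM addition stock), 30 min at 37C. cAMP read by HTRF (cAMP-d2 and anti-cAMP antibody-K in lysis buffer) after 30 min RT.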
D2 potentiator: positive allosteric modulators of human D2 dopamine receptor. DiscoveRx D2 beta-arrestin cells, luminescence, 90 min; 100% = 57 uM dopamine signal. potentiation, % (no concentration beside the values). 0.23% of 360,000 active. P14416; active = potentiation of 50% or more; inconclusive = 30% to 50%; inactive = 30% or less;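 note: compound concentration not given in the record; tested on top of an EC20 dose of dopamine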
Target sequence (P14416 whole entry, looked up): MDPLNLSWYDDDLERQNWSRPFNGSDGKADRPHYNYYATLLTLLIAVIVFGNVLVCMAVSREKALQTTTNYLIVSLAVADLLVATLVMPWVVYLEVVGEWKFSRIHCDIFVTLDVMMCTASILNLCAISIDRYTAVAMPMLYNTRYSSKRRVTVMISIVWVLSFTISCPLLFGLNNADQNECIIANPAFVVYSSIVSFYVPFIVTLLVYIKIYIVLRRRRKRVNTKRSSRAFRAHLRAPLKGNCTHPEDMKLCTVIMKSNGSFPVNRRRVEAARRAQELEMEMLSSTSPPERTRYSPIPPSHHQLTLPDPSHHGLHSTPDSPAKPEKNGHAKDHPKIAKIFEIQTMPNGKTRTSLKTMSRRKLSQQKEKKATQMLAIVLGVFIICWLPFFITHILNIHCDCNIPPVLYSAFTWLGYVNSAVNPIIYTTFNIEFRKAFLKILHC
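D2 cells co-treated with compound plus 50 nM dopamine (EC20) for 90 min at 37 deg C to detect potentiation. Beta-arrestin recruitment was read as enzyme-fragment luminescence after 1 h at ambient temperature. Full response was set by 57 uM dopamine.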
D2 agonist: human D2 receptor agonism in beta-arrestin assay; P14416; DiscoveRx PathHunter D2 beta-arrestin, luminescence, 90 min; 100% = 57 uM dopamine signal; activation, % (test concentration not listed); 0.084% of 360,000 active; in the data active = activation above about 40%; inconclusive = about 15% to 40%; inactive = below about 15%; note: compound concentration not given in the record; the text of the record calls up to 30% inactive
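Agonist mode: compounds alone added to overnight-plated D2 PathHunter cells for 90 min at 37 C, with 57 uM final dopamine (EC100) defining full response. Beta-arrestin recruitment detected by chemiluminescent reagent, read after 1 h at ambient temperature.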
* marks the source's active call; other numbers are inactive results; ? = inconclusive; . = not tested or not shown; [ ] = dose if it differs, or a comment.

Under each structure: CtBP-E1A blk	gsp agonist	Six1-Eya2 inh	gsp antag	D2 potentiator	D2 agonist
1: NS(=O)(=O)c1cccc(NC(=O)CC23CC4CC(C2)CC(CC(=O)Nc2cccc(S(N)(=O)=O)c2)(C4)C3)c1
    .	-5%	12	4%	-4	-2.9
2: CCOC(=O)C(C(C)=O)c1c(Br)c(O)c(O)c2c(C(=O)c3ccc(C)cc3)coc12 (centres undefined)
    ?	?	?	-5%	?	8.9
3: C[C@H](CO)N1C[C@H](C)[C@@H](CN(C)S(=O)(=O)c2ccccc2F)Oc2ncc(C#Cc3cccnc3)cc2C1=O
    -2	8%	-3	.	-2	-7.1
4: C=CC[n+]1c(-c2ccc(C)cc2)csc1Nc1ccc(NC(C)=O)cc1
    .	7%	?	-21%	-6	-0.9
5: Cc1cccc(CN2CCN(Cc3ccco3)CC2)c1
    .	2%	-1	-1%	-55	-4.5
6: O=C1SC(c2ccccc2)=N/C1=C/c1ccco1
    2	-42%[inhibitor]	4	10%	-4	-1.1
7: O=C(N/N=C/c1cccc(Oc2ccccc2)c1)c1ccccc1Br
    9	-52%[inhibitor]	-2	-12%	-10	-0.7
8: CCCSc1nnc2[nH]c(=O)cc(N)n12
    5	-62%[inhibitor]	6	7%	?	-1.8
9: COc1ccc(CNC(=O)CCc2c(C)nc3cc(-c4ccccc4OC)nn3c2C)cc1
    .	-3%	2	-14%	-18	-6.1
10: CCOC(=O)c1c(-c2ccc(C)o2)csc1NC(=O)CN1CCN(CC)CC1
    0	-25%	-10	4%	-13	-2.3
11: CC(C)(C)n1nnnc1C(c1cccs1)N1CCN(C/C=C/c2ccccc2)CC1 (centres undefined)
    -28	.	-9	.	-17	-2.6
12: Cc1[nH]c2ccccc2c1C(=O)/C=C\c1ccccc1Cl
    4	?	6	?	9	-1.6
13: O=C(Cc1ccccc1)N1CCN(S(=O)(=O)c2cccc([N+](=O)[O-])c2)CC1
    13	?	9	0%	4	-3.1
14: CNC(=O)c1ccsc1NC(=O)CS(=O)(=O)c1ccc(Cl)cc1
    -4	-3%	1	-8%	2	1.3
15: CCc1nnc(NC(=O)CSc2ccc(-c3ccc(C)cc3)nn2)s1
    -1	-1%[15.4 µM]	3	-3%	-6	-1.1
16: O=C(CSc1nccn1-c1ccc(F)cc1)Nc1ccc2c(c1)OCO2
    -9	0%	-21	1%	-8	-4.3
17: COc1ccc(NC2=Nc3cccc4cccc2c34)cc1
    -25	3%[15.4 µM]	?	-17%	-32	-4.4
18: CCC/C=C/c1ccc(CN2C(CC(C)C)C(=O)N(Cc3cn(CCC4OCCO4)nn3)CCS2(=O)=O)cc1 (centres undefined)
    ?	7%	-1	.	.	-0.6
19: N=c1n(CCN2CCCCC2)c2ccccc2n1CC(=O)c1cccs1
    -3	-8%[15.4 µM]	0	4%	-10	-5.7
20: Cc1cc(Br)c(NC(=O)COC(=O)CC2CC3CCC2C3)c(Br)c1 (centres undefined)
    0	1%	2	12%	-3	-5.5
21: O=C(OCCN1C(=O)c2cccc3c(N4CCOCC4)ccc(c23)C1=O)c1ccc(Cl)cc1Cl
    74	19%	58	4%	-18	-1.4
22: CC(C)c1nc2oc3c(=O)[nH]cnc3c2c2c1COC(C)(C)C2
    6	?	-5	?	0	-2.2
23: CN(C)CCCNCC(=O)NN(c1ccccc1)c1ccccc1
    5	2%[15.4 µM]	1	3%	-6	-1.3
24: Cc1ccccc1NS(=O)(=O)c1ccc(-c2ccc(=O)[nH]n2)o1
    -3	10%	0	6%	-10	1.6
25: Cc1cc(Cl)ccc1OCCCC(=O)OCC(N)=O
    -1	-4%[15.4 µM]	-2	-7%	-6	0.3
26: CN(C)c1cccc(C(=O)N(Cc2ccccc2)Cc2ccccc2)c1
    ?	-31%[inhibitor]	?	-26%	-2	-3.2
27: COc1ccc(CC(=O)NC(C)c2nnc(SCC(=O)c3ccc(Br)cc3)n2C)cc1 (centres undefined)
    3	-22%	-1	7%	-7	-1.0
28: CCOC(=O)C1CCCN(Cc2ccc(OCc3ccccc3)cc2)C1 (centres undefined)
    .	7%	6	7%	-83	-1.0
29: Cc1cccc(OCC(=O)Nc2ccc(CN3CCOCC3)cc2)c1C
    -1	-21%	3	-7%	-7	-1.4
30: CC(C)N(C)c1ncnc2c1ncn2[C@H]1CN(Cc2cccs2)C[C@@H](CO)O1
    1	.	2	.	-10	-3.9
31: CCOC(=O)c1ccc(NC(=O)CSc2nnc(CNC(=O)c3ccccc3F)o2)cc1
    32	-9%	24	24%	-2	-0.6
32: O=C1C=Cc2cccc3ccc(O)c1c23
    -15	16%	-12	9%	-1	2.9
33: CC(=O)OCc1cc2cccc(C)c2[nH]c1=O
    3	0%	-2	14%	0	-2.6
34: COc1ccc(C(NC(=O)C2C3C=CC(C3)C2C(=O)O)c2ccccc2)cc1 (centres undefined)
    10	-14%[15.4 µM]	0	-3%	8	-5.1
35: O=C(/C=C/c1ccc([N+](=O)[O-])cc1)NCCN1C(=O)S/C(=C\c2ccc(F)cc2)C1=O
    7	11%[15.4 µM]	2	-11%	0	3.1
36: COc1ccc(-c2cc(-c3nnc(-c4ccncc4)o3)c3ccccc3n2)cc1
    5	13%	-10	5%	-9	1.4
37: C#CCCCCCCC#CCN(C)C
    2	-3%	4	10%	-39	-2.6
38: Cc1ccc(NS(=O)(=O)c2ccc(C(=O)N3CCOCC3)cc2)cc1
    12	-4%	-2	1%	-3	-0.4
39: O=S1(=O)CC(NCc2ccccc2)C(Nc2ccc(Cl)cc2)C1 (centres undefined)
    1	14%	-2	5%	-6	-3.5
40: O=C(Cn1nnc(-c2ccc(Cl)cc2)n1)NCc1ccco1
    .	?	-2	-1%	-5	4.2
41: CCN(CC)S(=O)(=O)c1ccc(NC2c3ncccc3C(=O)N2Cc2ccccc2)cc1 (centres undefined)
    4	-7%	1	-3%	-8	0.1
42: O=C(CC1C(=O)NCCN1Cc1ccc(-c2ccccc2)cc1)NCC1CC1 (centres undefined)
    -23	28%[15.4 µM]	-6	10%	-8	-0.8
43: COc1ccc(C(=O)NCC(=O)OCC(=O)c2c(C)[nH]c3ccccc23)cc1OC
    -30	.	-4	-19%	-23	4.1
44: CC(C(=O)N1CCCCC1)N1CCN(S(=O)(=O)c2ccc(Cl)cc2)CC1 (centres undefined)
    29	-10%	20	-11%	2	-3.7
45: COc1ccc(-c2nc3oc4cc(OC)ccc4c(=O)c3c(=O)n2Cc2ccco2)cc1
    3	2%	-3	-28%	-27	-2.6

One compound at a time (already shown). Values in the order: CtBP-E1A blk	gsp agonist	Six1-Eya2 inh	gsp antag	D2 potentiator	D2 agonist
`COc1ccc(-c2nc3oc4cc(OC)ccc4c(=O)c3c(=O)n2Cc2ccco2)cc1` across the screens: 3	2%	-3	-28%	-27	-2.6
`CCN(CC)S(=O)(=O)c1ccc(NC2c3ncccc3C(=O)N2Cc2ccccc2)cc1` (centres undefined) across the screens: 4	-7%	1	-3%	-8	0.1
`Cc1ccc(NS(=O)(=O)c2ccc(C(=O)N3CCOCC3)cc2)cc1` across the screens: 12	-4%	-2	1%	-3	-0.4

(listing goes on)
Under each structure: CtBP-E1A blk	gsp agonist	Six1-Eya2 inh	gsp antag	D2 potentiator	D2 agonist
46: Cc1c(Br)c([N+](=O)[O-])nn1CCCC(=O)Nc1sc2c(c1C#N)CCC2
    -12	1%[15.4 µM]	4	-19%	-8	-6.3
47: CC(c1nccs1)N(C)C(=O)CCc1nnc(-c2ccc(-c3ccccc3)cc2)o1 (centres undefined)
    -11	-7%	-7	?	-9	-4.0
48: Cc1cc(C)nc(NS(=O)(=O)c2ccc(NC(=O)c3ccccc3C)cc2)n1
    .	2%	1	-5%	-1	-0.7
49: CC1(C)CC(c2nc(-c3ccccc3)cs2)CCS1 (centres undefined)
    27	-1%[15.4 µM]	34	-9%	-6	-2.8
50: CC(=O)c1cc2c(cc1NC(=O)c1ccc(-n3nc(C)cc3C)cc1)OCO2
    .	?	9	-4%	11	1.6
51: O=[N+]([O-])c1ccc(Nc2ccc(F)cc2)cc1
    2	12%	0	-11%	-10	-0.9
52: CCOC(=O)Cc1csc(NC(=O)Cc2ccc(C)cc2)n1
    -9	-7%[15.4 µM]	-1	8%	5	-18
53: O=C(Nc1ccc(Cl)cn1)C1CCCN(c2ncnc3c2nc2n3CCCCC2)C1 (centres undefined)
    0	14%	8	?	4	1.1
54: O=S1(=O)CCN(CCc2ccccc2)CC1
    4	-18%	6	.	-2	1.8
55: C[C@H]1CN([C@@H](C)CO)C(=O)CCCn2cc(nn2)CO[C@@H]1CN(C)S(=O)(=O)c1cccc(C#N)c1
    -9	-18%	7	.	0	-6.0
56: COCCn1c(SCC(=O)N2CC(C)OC(C)C2)nc2c([nH]c3ccccc32)c1=O (centres undefined)
    2	?	1	-6%	-2	0.2
57: CC1SCC(=O)N(CC(=O)NC2CCCCC2)C1=O (centres undefined)
    0	-4%[15.4 µM]	0	10%	-5	-1.7
58: OCCNCC(O)CN1c2ccccc2Sc2ccccc21 (centres undefined)
    -3	6%[15.4 µM]	-2	-15%	-40	-7.5
59: Cc1ccc(NCc2ccc([N+](=O)[O-])s2)cc1
    -2	1%[15.4 µM]	0	-3%	-4	1.1
60: O=C(Nc1ccc(N2CCCC2)cc1)c1cccc(-c2cc3ccccc3oc2=O)c1
    -22	30%	?	-9%	-38	-3.1
61: COc1ccc(-c2cc(NC(C)=O)c3ncc(-c4cc(OC)c(OC)c(OC)c4)n3c2)cn1
    ?	.	-13	.	-7	-3.3
62: COc1ccc(/C(C)=N/NC(=O)c2cc(-c3cccnc3)nc3ccccc23)cc1
    0	2%	1	-4%	-7	-2.7
63: COc1ccc(-c2[nH]c(-c3ccccc3)nc2SCC(=O)NC2CCCC2)cc1
    ?	24%	?	-29%	-9	-2.2
64: CN1CCN(c2ccc(C(=O)c3ccc(F)cc3)cc2)CC1
    -2	23%	1	7%	-15	-1.6
65: CNC(C)C#Cc1c(-c2cc(OC)c(OC)c(OC)c2)noc1C (centres undefined)
    1	.	-1	2%	-15	-4.3
66: Cc1cccc(NC(=O)Nc2nnc([C@H]3C[C@H](O)[C@@H](CO)O3)s2)c1
    5	.	0	.	-7	-0.8
67: COc1ccc(OC)c(NC(=O)CSc2nnc(CNC(=O)c3cccs3)o2)c1
    2	1%	-1	2%	-11	-1.5
